Screens deposited in PubChem by Broad Institute.
Vaccinia stage: blocks a specific stage of Vaccinia orthopoxvirus infection, primary screen, cell-based, single point; Vaccinia-infected cells, mCherry/Venus stage reporter fluorescence; active compounds read low; some inactives read as strong as hits; activity change (mCherry), % (no concentration beside the values); 89,000 tested, 0.01% active; AID 1053133, 2014;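 active = mCherry past -33% and 40 or more points under the early reporter, replicates agreeing; inconclusive = past -33% without that gap or agreement; tested in A549 cells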;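 note: scaled between vehicle wells and reference inhibitor wells; 23 nL library stock went into each well; one replicate is shown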
Vaccinia stage Venus: also measured in Vaccinia stage; calls as there; activity change (Venus), %; measured here: Venus reporter, other viral stage;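 negative = less Venus signal; first of two replicates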
Numbers without * were called inactive; u = inconclusive; x = not tested or not shown; & = joins results of further samples. This is a subset (hit frequency here may not be typical).

Each structure is followed by: Vaccinia stage	Vaccinia stage Venus
C[C@H](CO)N1C[C@H](C)[C@H](CN(C)C(=O)Nc2ccccc2)Oc2c(NC(=O)C3CCOCC3)cccc2C1=O
  -2	-3
CN(C)CC(=O)Nc1ccc2c(c1)[C@@H]1C[C@H](CC(=O)NCc3ccncc3)O[C@H](CO)[C@@H]1O2
  4	0
COc1ccc(C#Cc2ccc3c(c2)[C@]2(C(=O)N3)[C@H](c3ccc(O)cc3)N3[C@H](c4ccccc4)[C@H](c4ccccc4)OC(=O)[C@H]3[C@@H]2C(=O)N2CCc3cc(OC)c(OC)cc3C2)cc1
  9	2
C[C@H](NC(=O)C[C@H]1C[C@H]2c3cc(NC(=O)NC4CCCC4)ccc3O[C@H]2[C@H](CO)O1)c1ccccc1
  -2	-3
O=C(Nc1ccccc1)N1CCCCN2[C@H](C1)[C@@H](c1ccc(Br)cc1)[C@@H]2CO
  -9	-14
CC(=O)Nc1ccc2c(c1)C(=O)N(C)[C@H]1CC[C@H](CC(=O)NCc3ccc(Cl)cc3)O[C@@H]1CO2
  -4	-4
CCCN(C)C[C@@H]1OCCCC[C@@H](C)Oc2ccc(NC(=O)NC(C)C)cc2C(=O)N([C@@H](C)CO)C[C@@H]1C
  16	9
C[C@H](O)C#Cc1cnc2c(c1)C(=O)N([C@H](C)CO)C[C@H](C)[C@@H](CN(C)C(=O)c1ccncc1)O2
  29	13
O=C(C[C@@H]1CC[C@H]2[C@@H](COC[C@@H](O)CN2S(=O)(=O)c2ccc(F)cc2)O1)NCCN1CCCCC1
  -3	-2
CO[C@H]1CN(C)C(=O)c2ccc(NS(C)(=O)=O)cc2OC[C@@H](C)N(C(=O)CN(C)C)C[C@@H]1C
  7	8
CO[C@H]1CN(C)C(=O)c2cc(NS(=O)(=O)c3c(C)noc3C)ccc2OC[C@H](C)NC[C@H]1C
  15	9
C[C@H](CO)N1C[C@H](C)[C@@H](CN(C)C(=O)NC2CCCC2)OCc2cn(nn2)CCCC1=O
  20	9
Cc1noc(C)c1NC(=O)Nc1ccc2c(c1)C(=O)N([C@H](C)CO)C[C@@H](C)[C@H](CN(C)C(=O)Nc1c(C)noc1C)OCCCC[C@@H](C)O2
  14	-1
Cc1noc(C)c1NC(=O)N(C)C[C@@H]1Oc2ncc(C#CC3CCCCC3)cc2C(=O)N([C@H](C)CO)C[C@H]1C
  -7	-8
Cc1cccc(S(=O)(=O)N2CC[C@@H]3[C@H]2c2cc(C#Cc4ccccc4F)ccc2N[C@@H]3CO)c1
  2	-3
COCC#Cc1ccc2c(c1)O[C@H](CN(C)S(=O)(=O)c1ccc(F)cc1)[C@@H](C)CN([C@H](C)CO)S2(=O)=O
  -20	-15
CC(C)CC#Cc1cnc2c(c1)C(=O)N([C@@H](C)CO)C[C@H](C)[C@@H](CN(C)C(=O)C1CCOCC1)O2
  -7	-1
C[C@H](CO)N1C[C@H](C)[C@H](CN(C)C(=O)Nc2ccc3c(c2)OCO3)OCc2ccccc2-c2c(n(C)c3ccccc23)C1=O
  u	x
COCC(=O)N1CC2(C1)CN(C(=O)NC1CCCC1)[C@@H](CO)c1c2c2ccc(OC)cc2n1C
  -1	-9
COCC#Cc1ccc2c(c1)O[C@H](CN(C)Cc1ccc(F)cc1)[C@@H](C)CN([C@H](C)CO)S2(=O)=O
  -29	-17
Cc1ccc(S(=O)(=O)N[C@@H]2CC[C@@H](CCNC(=O)c3ccc4c(c3)OCO4)O[C@H]2CO)cc1
  -6	-9
C[C@@H]1CN([C@H](C)CO)C(=O)Cc2cc(NC(=O)Cc3ccccc3)ccc2O[C@H]1CN(C)S(C)(=O)=O
  13	9
C[C@H]1CN([C@@H](C)CO)C(=O)c2cc(C#CC3(O)CCCC3)cnc2O[C@H]1CN(C)S(=O)(=O)c1ccc(F)cc1
  -4	-7
Cc1noc(C)c1S(=O)(=O)Nc1ccc2c(c1)C(=O)N([C@@H](C)CO)C[C@@H](C)[C@H](CN(C)CC1CCCCC1)O2
  7	3
CCNC(=O)[C@H]1[C@H](CO)[C@H]2Cn3c(cccc3=O)[C@H]2N1C(=O)C1CCCC1
  19	58
C[C@H](CO)N1C[C@H](C)[C@H](CN(C)C(=O)Nc2ccc(F)cc2)Oc2cc(/C=C/c3ccccc3)ccc2S1(=O)=O
  -35	-27
C[C@H]1CN([C@@H](C)CO)C(=O)c2cc(NC(=O)NC3CCCCC3)ccc2O[C@@H]1CN(C)S(=O)(=O)c1ccc(Cl)cc1
  -7	-9
CCCNC(=O)N(C)C[C@H]1Oc2ncc(/C=C/c3ccccc3)cc2C(=O)N([C@@H](C)CO)C[C@@H]1C
  -4	-5
C/C=C/c1cnc2c(c1)C(=O)N([C@H](C)CO)C[C@H](C)[C@@H](CN(C)Cc1ccccc1)O2
  9	6
C[C@@H]1CCCCO[C@H](CN(C)S(=O)(=O)c2cn(C)cn2)[C@@H](C)CN([C@H](C)CO)C(=O)c2cc(NC(=O)Nc3ccc4c(c3)OCO4)ccc2O1
  41	14

(list continues)
Each structure is followed by: Vaccinia stage	Vaccinia stage Venus
COc1ccc2c3c(n(C)c2c1)[C@@H](CO)N(C(=O)Nc1cccc(F)c1)CC31CN(Cc2nccs2)C1
  u	x
C[C@@H]1CN([C@@H](C)CO)C(=O)c2cccc(NC(=O)Nc3ccccc3)c2O[C@H]1CN(C)Cc1ccc(C(=O)Nc2ccccc2N)cc1
  14	7
O=C(CCN1CCCCC1)NCC[C@H]1CC[C@@H](NC(=O)C2CCCCC2)[C@@H](CO)O1
  10	14
O=C(O)C[C@H]1C[C@@H]2c3cc(NC(=O)NC4CCCC4)ccc3O[C@@H]2[C@@H](CO)O1
  11	9
CC(=O)N1CC[C@@H]2[C@@H](CO)Nc3ccc(C#Cc4cccnc4)cc3[C@@H]21
  14	11
CN(C)C(=O)[C@H]1[C@H](CO)[C@H]2Cn3c(ccc(-c4cncnc4)c3=O)[C@H]2N1Cc1cc(F)ccc1F
  12	7
COc1ccccc1CNC(=O)C[C@@H]1C[C@H]2c3cc(NC(=O)NC4CCCC4)ccc3O[C@H]2[C@H](CO)O1
  14	12
COc1ccc(CN(C)C[C@@H]2OCCCC[C@@H](C)Oc3ccc(NC(=O)CCCCCC(=O)Nc4ccccc4N)cc3C(=O)N([C@H](C)CO)C[C@@H]2C)cc1
  2	9
Cc1noc(C)c1NC(=O)Nc1ccc2c(c1)C(=O)N([C@@H](C)CO)C[C@@H](C)[C@@H](CN(C)C)OCCCC[C@H](C)O2
  -7	-1
C[C@@H]1CN([C@H](C)CO)C(=O)c2cc(NC(=O)Nc3ccccc3)ccc2O[C@H]1CN(C)C(=O)Nc1ccc(C(F)(F)F)cc1
  19	16
Cc1noc(C)c1NC(=O)N[C@H]1C=C[C@H](CC(=O)NCCCN(C)C)O[C@@H]1CO
  12	6
CCCN1[C@@H]2c3ccc(/C=C/c4ccccc4)c(=O)n3C[C@H]1[C@H](CO)[C@H]2C(=O)NCC1CC1
  -8	-5
O=C(O)C[C@@H]1C[C@H]2c3cc(NC(=O)NC4CCCCC4)ccc3O[C@H]2[C@@H](CO)O1
  9	8
C[C@@H]1CN([C@@H](C)CO)C(=O)Cc2cc(NC(=O)NC3CCCCC3)ccc2O[C@H]1CN(C)C(=O)Nc1cccc2ccccc12
  10	20
CO[C@@H]1CC[C@H]2CCOc3ccc(C#N)cc3C(=O)N(C)C[C@@H](OC)[C@H](C)C(=O)N(C)C[C@@H]1O2
  9	8
C[C@@H]1CN([C@H](C)CO)C(=O)Cc2cc(NC(=O)Nc3ccc4c(c3)OCO4)ccc2O[C@H]1CN(C)S(=O)(=O)c1ccccc1
  3	9
CCS(=O)(=O)N1CC(=O)N2[C@@H](CO)[C@H](c3ccc(C#CC4CC4)cc3)[C@@H]2C1
  -9	-7
Cc1noc(C)c1S(=O)(=O)Nc1cccc2c1O[C@H](CN(C)C(=O)Nc1ccccc1)[C@H](C)CN([C@@H](C)CO)C2=O
  -4	13
C[C@@H]1CN([C@@H](C)CO)C(=O)c2cc(NC(=O)Nc3ccccc3)ccc2O[C@@H]1CN(C)C(=O)Nc1ccccc1
  9	9
C[C@@H]1CN([C@@H](C)CO)C(=O)Cc2cc(NS(=O)(=O)c3cn(C)cn3)ccc2O[C@H]1CN(C)S(=O)(=O)c1cccs1
  -1	-4
C[C@@H]1CN([C@H](C)CO)C(=O)c2cc(/C=C/c3ccccc3)cnc2O[C@@H]1CN(C)S(C)(=O)=O
  -7	0
Cc1cccc(NC(=O)Nc2ccc3c(c2)C(=O)N(C)[C@@H]2CC[C@@H](CC(=O)O)O[C@@H]2CO3)c1
  -3	2
COc1cccc(-c2ccc3n(c2=O)C[C@H]2[C@H](CO)[C@@H](C(=O)N(C)C)N(C(=O)C4CC4)[C@@H]32)c1
  -1	3
CC=Cc1ccc2n(c1=O)C[C@@H]1[C@@H](CO)[C@H](C(=O)NCC3CC3)[C@H]2N1Cc1ccccc1OC (mixture of isomers)
  -2	0
CCO[C@H]1OC(C(=O)N2CCN(Cc3ccc4c(c3)OCO4)CC2)=C[C@@H](C2CCCCC2)[C@@H]1CCCO
  u	x
Cc1noc(C)c1S(=O)(=O)Nc1ccc2c(c1)CC(=O)N([C@@H](C)CO)C[C@@H](C)[C@@H](CN(C)C(=O)Nc1cccc3ccccc13)O2
  -2	0
Cc1ccc(S(=O)(=O)N[C@@H]2C=C[C@@H](CC(=O)N3CCC(Cc4ccccc4)CC3)O[C@H]2CO)cc1
  u	x
O=C(NCc1cccc(F)c1)[C@H]1[C@H](CO)[C@H]2Cn3c(cccc3=O)[C@@H]1N2
  -2	-3
C[C@@H]1CN([C@H](C)CO)S(=O)(=O)c2ccc(-c3cccc(C#N)c3)cc2O[C@@H]1CN(C)C(=O)c1cccnc1
  19	12
C[C@@H]1CN([C@H](C)CO)C(=O)c2cc(NS(=O)(=O)c3ccccc3)ccc2O[C@H]1CN(C)C
  16	9

Remaining list, next part
SMILES,Vaccinia stage,Vaccinia stage Venus
O=C(Nc1ccccc1)N[C@H]1CC[C@@H](CCNS(=O)(=O)c2ccccc2F)O[C@@H]1CO,-4,0
CC(C)CC#Cc1ccc2c(c1)O[C@H](CN(C)S(=O)(=O)c1cccc(F)c1)[C@H](C)CN([C@@H](C)CO)S2(=O)=O,-14,-14
C[C@@H]1CN([C@@H](C)CO)C(=O)c2cc(Br)cnc2O[C@@H]1CN(C)C(=O)Nc1ccc(F)cc1,10&8,1&0
C[C@@H]1CCCCO[C@H](CN(C)Cc2ccc3c(c2)OCO3)[C@H](C)CN([C@@H](C)CO)C(=O)c2cc(NC(=O)C3CCCCC3)ccc2O1,u,x
COC(=O)C(CC#Cc1ccc2c(c1)[C@]1(C(=O)N2)[C@H](c2ccc(O)cc2)N2[C@H](c3ccccc3)[C@H](c3ccccc3)OC(=O)[C@H]2[C@@H]1C(=O)NC[C@H](O)c1ccccc1)C(=O)OC,17,11
COCC#Cc1cnc2c(c1)C(=O)N([C@H](C)CO)C[C@@H](C)[C@H](CN(C)C(C)=O)O2,9,7
CN(C)C(=O)C[C@H]1C=C[C@@H](NC(=O)NC2CCCC2)[C@H](CO)O1,2,1
O=C(C1CCC1)N1C[C@H]2[C@@H](c3ccccc31)[C@@H](CO)N2C(=O)c1ccccc1F,-6,12
CCCNC(=O)C[C@H]1CC[C@H]2[C@@H](COc3ccc(NC(=O)Nc4c(C)noc4C)cc3C(=O)N2C)O1,-4,11
C[C@@H]1CCCCO[C@@H](CN(C)C(=O)Nc2ccc3c(c2)OCO3)[C@H](C)CN([C@@H](C)CO)C(=O)c2cc(NC(=O)Nc3ccccc3)ccc2O1,-7,-6
CN(C)CC#Cc1ccc([C@@H]2[C@@H](CO)N3CCCCN(C(=O)Nc4cc(F)ccc4F)C[C@H]23)cc1,4,5
CCC(=O)Nc1ccc2c(c1)C(=O)N(C)[C@@H]1CC[C@H](CC(=O)NCC3CCCCC3)O[C@@H]1CO2,-5,0

Next section (5 carried over from the part before).
SMILES,Vaccinia stage,Vaccinia stage Venus
O=C(C1CCC1)N1C[C@H]2[C@@H](c3ccccc31)[C@@H](CO)N2C(=O)c1ccccc1F,-6,12
CCCNC(=O)C[C@H]1CC[C@H]2[C@@H](COc3ccc(NC(=O)Nc4c(C)noc4C)cc3C(=O)N2C)O1,-4,11
C[C@@H]1CCCCO[C@@H](CN(C)C(=O)Nc2ccc3c(c2)OCO3)[C@H](C)CN([C@@H](C)CO)C(=O)c2cc(NC(=O)Nc3ccccc3)ccc2O1,-7,-6
CN(C)CC#Cc1ccc([C@@H]2[C@@H](CO)N3CCCCN(C(=O)Nc4cc(F)ccc4F)C[C@H]23)cc1,4,5
CCC(=O)Nc1ccc2c(c1)C(=O)N(C)[C@@H]1CC[C@H](CC(=O)NCC3CCCCC3)O[C@@H]1CO2,-5,0
OC[C@H]1[C@H](c2ccc(-c3ccccc3F)cc2)[C@@H]2CN(Cc3cncnc3)CCCCN12,-9,-7
CCS(=O)(=O)Nc1ccc2c(c1)C(=O)N(C)C[C@@H](OC)[C@@H](C)CN[C@H](C)CO2,6,6
O=C(C[C@@H]1CC[C@H](NC(=O)C2CCC2)[C@H](CO)O1)NCCCN1CCOCC1,18,13
C[C@@H]1CN([C@@H](C)CO)C(=O)c2cccc(NC(=O)Nc3ccc(F)cc3)c2O[C@H]1CN(C)C(=O)Nc1ccc(C(F)(F)F)cc1,-8,2
C[C@H](CO)N1C[C@H](C)[C@@H](CN(C)CC2CCCCC2)Oc2c(NC(=O)Nc3cccc4ccccc34)cccc2C1=O,-4,8

Profiles, quoted from the list.
Record of C[C@@H]1CN([C@@H](C)CO)C(=O)c2cccc(NC(=O)Nc3ccc(F)cc3)c2O[C@H]1CN(C)C(=O)Nc1ccc(C(F)(F)F)cc1 → Vaccinia stage: -8; Vaccinia stage Venus: 2
Record of CCS(=O)(=O)Nc1ccc2c(c1)C(=O)N(C)C[C@@H](OC)[C@@H](C)CN[C@H](C)CO2 → Vaccinia stage: 6; Vaccinia stage Venus: 6
